CSC inhib: cancer stem cell inhibition | cancer stem cell-like cells viability, luminescence | inhibition, % at 7.5 µM | hit rate 1.1% among 300,000 | AID 2717;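 active means mean at 75% or more and at least half the replicates too; inconclusive means mean and replicates disagree; tested in HMLE shEcad cells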;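 further: 0% = median of negative and 100% = median of positive control wells; the first replicate is given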
Rce1 inh: inhibitors of yeast Ras-converting enzyme | AID 2563 | hit rate 0.27% among 290,000 | yeast membranes, quenched prenylated peptide cleavage fluorescence | Q03530 | calls only;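 active means fall in fluorescence gain of 50% or more versus controls, with final raw signal at or below 3038400; inconclusive means same 50% fall but final raw signal above 3038400; inactive means fall in fluorescence gain under 50%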;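 further: plate controls were neutral control wells for no effect and wells lacking membranes for full effect; tested at 10 µM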
Target sequence (Q03530 whole entry, looked up): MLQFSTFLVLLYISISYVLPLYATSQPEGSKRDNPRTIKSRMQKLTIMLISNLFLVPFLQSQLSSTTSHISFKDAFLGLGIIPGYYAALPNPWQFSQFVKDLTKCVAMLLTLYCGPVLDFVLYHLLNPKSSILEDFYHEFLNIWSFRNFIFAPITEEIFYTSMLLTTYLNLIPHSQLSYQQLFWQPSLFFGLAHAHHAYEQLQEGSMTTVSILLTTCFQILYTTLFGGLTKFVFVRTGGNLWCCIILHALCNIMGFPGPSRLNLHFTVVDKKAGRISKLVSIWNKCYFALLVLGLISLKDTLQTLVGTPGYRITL
eIF4H inh: inhibitors of RNA binding by human eIF4H | hit rate 0.94% among 290,000 | eIF4H fluorescence polarization binding assay | inhibition, % at 35 µM | Q15056 | AID 2012;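 active means 50% or more with normal probe brightness, or confirmed in later tests; inconclusive means above 50% with abnormal brightness, or retests that disagree; inactive means below 50% or failed in later tests; about a fifth of its hits are not listed in these tables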;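 further: calls also rest on retests at 20 µM and on dose response follow-up; 0% = protein and probe with vehicle and 100% = probe without protein; strong numbers were not always called active; many hits fall short of the cut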
HIV Env fusion: inhibitors of HIV Env-mediated cell fusion | HeLa-JRFL Env/CEM21 cell fusion, luciferase | AID 651610 | inhibition, % at 12.3 µM | hit rate 1.1% among 360,000;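 active means mean replicate inhibition score of at least 50 and every replicate individually at or above 50; inconclusive means only one of the two criteria met; inactive means mean below 50 and not all replicates reaching 50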;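 further: 0% = plate neutral controls and 100% = maraviroc near 300 nM; one replicate is shown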
MT1-MMP act inh: blocks activation of human MT1-MMP. P50281. HT1080 RFP-PRO-GFP cells, GFP/RFP ratio fluorescence, overnight; percent of plate control window, DMSO zero. GFP/RFP ratio change, % at 20 µM. hit rate 0.061% among 360,000. AID 651647;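 active means GFP/RFP ratio change of at least 30% with cell ATP level not reduced by more than half and red fluorescence within 50% of control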; further: strong numbers were not always called active
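Assay system: HT1080 cells carrying an RFP-PRO-GFP reporter | Dosing: Single dose of 20 µM compound, 1% DMSO final | Incubation: Cells overnight before dosing, compound overnight, 37 °C, 5% CO2 | Evaluation: GFP/RFP fluorescence ratio | Control set: DMSO and RFP-L50D-GFP cell wells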
Yeast UUG start: yeast start codon fidelity modulation; hit rate 0.13% among 350,000; AID 602363; S. cerevisiae UUG-firefly luciferase reporter, luminescence/redox ratio; activity score, % at 18.7 µM;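 active means replicate mean at a twofold rise or more, about +100% in these data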;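 further: firefly luciferase made from a UUG start codon reports start codon fidelity; reporter light over untreated wells divided by growth signal over untreated wells; some hits fall short of that in this replicate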
PABP polyA inh: PABP-poly(A) binding inhibition. hit rate 1% among 290,000. PABP-poly(A) RNA binding, fluorescence polarization. inhibition, % at 35 µM;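 active means 50% or more with normal probe brightness, or confirmed in later tests; inconclusive means above 50% with abnormal brightness, or retests that disagree; inactive means below 50% or failed in later tests; about a fifth of its hits are not listed in these tables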;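 further: calls also rest on retests at 20 µM and on dose response follow-up; controls were probe without protein and protein plus probe with vehicle; some compounds called inactive have numbers as strong as hits; many hits fall short of the cut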
eIF4H inh retest: second read-out of eIF4H inh, no call of its own (marks repeat the call); inhibition, %; compound at 20 µM; confirmation average;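 mean of two retest wells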
PABP polyA inh retest: recorded beside PABP polyA inh, whose call it bears; inhibition, %; compound at 20 µM; confirmation repeats;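 mean of two retest wells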
MT1-MMP act inh RFP: recorded beside MT1-MMP act inh, whose call it bears; RFP signal change, %; measured here: RFP expression control read;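 0 = vehicle wells; hits needed this value within 50% of zero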
* marks the source's active call; other numbers are inactive results; i = inactive; u = inconclusive; x = no result given; & = joins results of further samples; [ ] = remark or other dose.

SMILES | CSC inhib | Rce1 inh | eIF4H inh | HIV Env fusion | MT1-MMP act inh | MT1-MMP act inh RFP | Yeast UUG start | PABP polyA inh | others
COc1ccccc1CN1CCN(S(=O)(=O)c2ccc(C)cc2)CC1 | 0 | i | x | -4 | 1 | 2 | x | x
Cc1ccc(C(=O)N(C)c2ccc(OCC(=O)N3c4ccc(C)cc4C4CN(C)CCC43)cc2)cc1 (stereo not given) | 7 | x | -10 | x | 2 | 5 | x | 18
CCOC(=O)C1=C(C)N(CCCC(=O)O)C(=O)NC1c1ccc(Cl)cc1 (stereo not given) | -7 | i | -3 | -54 | 1 | 2 | -13 | 13
O=C(c1ccccc1)c1ccc(Cn2cc(-c3ccccc3)nn2)cc1 | 16 | i | 2 | -1 | 13 | -27 | -3 | 3
O=C1Nc2ccccc2Nc2ccccc21 | -15 | i | 12 | 12 | 1 | 1 | 82 | 11
CC(C)Oc1ccc(S(=O)(=O)N2CCOCC2)cc1NC(=O)C1=NN(c2ccccc2)C(=O)CC1 | x | x | x | 24 | 2 | -9 | -12 | x
CS(=O)(=O)c1ccc([C@@H](O)[C@@H](CO)NC(=O)C(Cl)Cl)cc1 | -16 | i | x | -15 | 8 | 5 | -14 | x
CCOc1cc(/C=N/NC(=O)C(=O)NCCCOC(C)C)cc(Br)c1O | -11 | i | -29 | x | 1 | 4 | x | -6
C/C(=N\Nc1nc2ccccc2[nH]1)c1ccc(N2CCOCC2)cc1 | 3 | i | 10 | -68 | 14 | 3 | x | 6
Clc1ccccc1Oc1cnc2ccccc2n1 | 0 | i | -3 | -55 | -5 | -3 | -6 | -11
Cc1cc(C)nc(NC(=O)c2c(Cl)cccc2Cl)n1 | 10 | i | -1 | 0 | -2 | -6 | -3 | 4
CCOC(=O)Cn1c(=O)oc2cc(S(=O)(=O)N3CCc4ccccc43)ccc21 | -15 | i | -2 | 2 | 1 | 2 | -15 | -3

9 entries from above, ordered by heavy-atom count, descending:
SMILES | CSC inhib | Rce1 inh | eIF4H inh | HIV Env fusion | MT1-MMP act inh | MT1-MMP act inh RFP | Yeast UUG start | PABP polyA inh | others
Cc1ccc(C(=O)N(C)c2ccc(OCC(=O)N3c4ccc(C)cc4C4CN(C)CCC43)cc2)cc1 (stereo not given) | 7 | x | -10 | x | 2 | 5 | x | 18
CC(C)Oc1ccc(S(=O)(=O)N2CCOCC2)cc1NC(=O)C1=NN(c2ccccc2)C(=O)CC1 | x | x | x | 24 | 2 | -9 | -12 | x
CCOC(=O)Cn1c(=O)oc2cc(S(=O)(=O)N3CCc4ccccc43)ccc21 | -15 | i | -2 | 2 | 1 | 2 | -15 | -3
CCOC(=O)C1=C(C)N(CCCC(=O)O)C(=O)NC1c1ccc(Cl)cc1 (stereo not given) | -7 | i | -3 | -54 | 1 | 2 | -13 | 13
COc1ccccc1CN1CCN(S(=O)(=O)c2ccc(C)cc2)CC1 | 0 | i | x | -4 | 1 | 2 | x | x
CS(=O)(=O)c1ccc([C@@H](O)[C@@H](CO)NC(=O)C(Cl)Cl)cc1 | -16 | i | x | -15 | 8 | 5 | -14 | x
Cc1cc(C)nc(NC(=O)c2c(Cl)cccc2Cl)n1 | 10 | i | -1 | 0 | -2 | -6 | -3 | 4
Clc1ccccc1Oc1cnc2ccccc2n1 | 0 | i | -3 | -55 | -5 | -3 | -6 | -11
O=C1Nc2ccccc2Nc2ccccc21 | -15 | i | 12 | 12 | 1 | 1 | 82 | 11

The listing continues.
SMILES | CSC inhib | Rce1 inh | eIF4H inh | HIV Env fusion | MT1-MMP act inh | MT1-MMP act inh RFP | Yeast UUG start | PABP polyA inh | others
O=C(c1ccco1)N1CCN(CCOCCOc2cccc3ccccc23)CC1 | -7 | i | 6 | x | -3 | 1 | x | 12
CCN(CC)S(=O)(=O)c1ccc(OC)c(NC(=O)CC2CCCC2)c1 | -14 | x | -8 | -10 | 0 | 2 | 8 | 5
C#CCn1c(=NC(=O)c2ccc(S(=O)(=O)N3CCc4ccccc4C3)cc2)sc2cc(S(N)(=O)=O)ccc21 | x | i | 9 | x | -13 | -15 | -12 | -5
C[C@H](CO)N1C[C@H](C)[C@@H](CN(C)C(=O)Nc2ccccc2)Oc2ccc(NC(=O)C3CC3)cc2C1=O | -3 | x | x | -4[16.7 µM] | -3 | 4 | -6&-8 | x
Cc1cc(C)c(C)c(S(=O)(=O)N2CCC(C(=O)NNC(=O)c3ccccc3O)CC2)c1C | -8 | i | x | 7 | 2 | -5 | -5 | x
N#CC1c2ccccc2-c2ccccc2N1C(=O)c1ccccc1 (stereo not given) | x | x | x | 13 | 10 | -5 | -8 | x
c1ccc(COc2ccc3nocc3c2)cc1 | 3 | i | x | x | 4 | -2 | -17 | x
COCCNC(=O)C(C)N1c2cccc3cccc(c23)S1(=O)=O (stereo not given) | 10 | i | -7 | -66 | -20 | 0 | 6 | -2
O=C(Nc1ccc(-c2nnc(-c3ccccc3)o2)cc1)c1ccc(Br)o1 | -4 | i | x | x | 3 | -1 | -26 | x
CC(=O)Nc1ccc2nc3c(=O)n(C)c(=O)n(C)c3nc2c1 | -1 | i | u | -11 | -20 | 0 | x | u
COc1cccc(/C=N/NC(=S)NC2CC3CCC2C3)c1OC (stereo not given) | -12 | i | 48 | 8 | 3 | -3 | x | 33
COc1ccc(N(CC(=O)NC(C)(C)C)S(=O)(=O)c2ccccc2)cc1OC | -13 | i | 2 | x | 0 | 4 | x | 0
Cc1ccccc1CC1(CO)CCCN(C(=O)CCC(F)(F)F)C1 (stereo not given) | -5 | i | -4 | -3 | 0 | -4 | -7 | 6
CC(=O)c1sc(NC(=O)C2CCN(C(=O)c3ccc(F)cc3)CC2)nc1-c1ccccc1 | 0 | i | x | 11 | 2 | -5 | -4 | x
COc1cc(-n2c(-c3ccccc3)n[nH]c2=S)c(OC)cc1Cl | -9 | i | -2 | -4 | 1 | 1 | x | -3
O=C(CSCc1ccccc1)Nc1ccc(F)cc1F | -10 | i | -9 | 0 | 0 | 3 | -23 | -1
Cc1ccc(C(=O)CN(C(=O)c2ccc(Cl)c(Cl)c2)N2C(=O)C3CCCCC3C2=O)cc1 (stereo not given) | 0 | i | -6 | 2 | 4 | 2 | -12 | 9
Nc1nonc1-n1nnc(C(=O)N/N=C/c2ccc(OCc3ccccc3)cc2)c1COc1ccc(F)cc1 | 26 | i | 4 | -20 | -7 | -5 | -28 | -2
CCc1nnc(NC(=O)c2ccc(COc3ccccc3)o2)s1 | 31 | i | 6 | -16 | -3 | -2 | -10 | 8
COC(=O)c1sccc1NC(=O)c1csc2c1CCCC2 | 20 | i | 2 | x | -12 | -6 | -8 | -6
N#CC1(NC(=O)COC(=O)c2ccc(Cl)nc2)CCCCC1 | -2 | i | x | -9 | -6 | 3 | 3 | x
O=[N+]([O-])c1cccc(-c2noc(-c3ccco3)n2)c1 | -9 | i | 1 | -61 | 2 | 4 | x | 4
CCCc1cc(=O)oc2cc(C)cc(OCC(=O)NCc3cccnc3)c12 | -12 | i | -4 | 6 | -3 | -2 | -11 | 2
C=CCn1c(N)c(C(=O)NCc2ccco2)sc1=S | x | i | 6 | 13 | -2 | 3 | -15 | 3
Cc1nn(Cc2c(Cl)cccc2Cl)c(C)c1NC(=O)Cn1nc([N+](=O)[O-])c(Cl)c1C | -12 | i | -3 | 9 | -3 | -1 | x | 3
Cc1ccc2c(c1)C1(C(=O)N2C)N2CC3(C)CN1CC(C)(C2)C3=O (stereo not given) | x | i | 1 | 2 | 5 | 0 | 6 | 10
CCOC(=O)c1c(NC(=O)c2cc3n(n2)C(C(F)(F)F)CC(c2ccccc2)N3)sc(C)c1C (stereo not given) | -13 | i | -12 | x | 1 | 0 | -17 | 5
COc1ccccc1C(=O)CN1C(=O)NC2(CCCCCC2)C1=O | -9 | x | x | 17 | -1 | 2 | -13 | x
Cc1cc(C(=O)COC(=O)Cc2n[nH]c(=O)c3ccccc23)c(C)n1-c1cccc(C(F)(F)F)c1 | -4 | i | -12 | 27 | 0 | -10 | -13 | -6
NC[C@@]12CCCC1C1CCC2C1 (stereo not given in full) | -16 | i | -9 | x | x | x | x | -10
COc1ccc(CNCC(O)COCc2cccs2)cc1 (stereo not given) | -4 | i | -5 | 7 | 4 | 1 | -14 | 4
O=C(NC1CC1)c1ccc(CSCc2cccc(F)c2)o1 | 0 | i | 8 | 8 | -1 | -7 | -4 | 6
CCC(CC)C(=O)Nc1cccc(/C(C)=N\NC(=O)c2ccc(C)s2)c1 | -12 | i | -10 | x | 0 | -4 | -20 | 2
COCCN1CCn2c(nc3cc(NC(=O)c4cccs4)ccc32)C1 | -21 | i | -1 | x | -2 | -1 | -14 | 1
CCOc1ccccc1Oc1cn[nH]c1-c1ccc(O)cc1O | -15 | i | 8 | 13 | -2 | -20 | x | -2
Nc1c(OS(=O)(=O)c2ccccc2)cccc1OS(=O)(=O)c1ccccc1 | x | x | x | -50 | 0 | 4 | -11 | x
Cc1ccc(C)c(NC(=O)CN(C)C(=O)c2oc3c(Cl)cccc3c2C)c1 | -3 | i | x | 13 | 1 | -1 | -16 | x
O=C(CN(C(=O)c1nsc(Cl)c1Cl)c1ccc(F)cc1)NC1CCCC1 | -3 | x | -3 | 14 | 0 | 3 | -9 | 7
COc1cc([N+](=O)[O-])cc(/C=C2/SC(=S)N(Cc3ccccc3)C2=O)c1O | 92* | i | 33 | 42 | 4 | 40 | -24 | 41
CC(=O)Oc1ccccc1Cn1c(C)c(C(=O)NCc2cccc([N+](=O)[O-])c2)sc1=O | x | x | x | 21 | 5 | -9 | -20 | x
Cc1cc(-c2nsc(=O)o2)c(S(C)(=O)=O)s1 | -14 | i | 1 | -58 | 2 | 8 | -14 | 2
Cc1cc(C(=O)COC(=O)CC2Sc3ccccc3NC2=O)c(C)n1-c1cccc(C(F)(F)F)c1 (stereo not given) | 5 | i | 14 | 0 | -5 | -4 | -5 | 10
Cc1ccc2cc3cc(C(=O)NC4CC4)oc3nc2c1 | -1 | i | -13 | -48 | 6 | -13 | -3 | 0
CCN(CC)C(=O)c1n[nH]c(=O)c2ccccc12 | 3 | i | -9 | -98 | 7 | 6 | 0 | -9
Cc1ccc(C(=O)N2CCNC(=O)C2CC(=O)Nc2ccccc2)cc1 (stereo not given) | -8 | i | 70 | -37 | 0 | 2 | -11 | -1 | eIF4H inh retest=-10;PABP polyA inh retest=12
COc1ccc(S(=O)(=O)N2CCOCC2)cc1NC(=O)c1sccc1C | x | x | x | -1 | -1 | 0 | -17 | x
CC(C)(C)C(=O)Nc1cc2nn(-c3ccccc3)nc2cc1Cl | x | x | 0 | i | 0 | 0 | -81 | -8
CCOc1ccccc1CN1CCNC(=O)C1CC(=O)NCc1nccn1CC (stereo not given) | -10 | i | -1 | -7 | -4 | 6 | -14 | 4
CCOC(=O)N1CCN(C(=O)CNS(=O)(=O)c2cccs2)CC1 | -1 | i | -5 | -97 | -4 | 2 | -3 | -4
O=S1(=O)CCN(Cc2ccccc2Cl)CC1 | 8 | i | 57* | x | 2 | 5 | x | 33* | eIF4H inh retest=82*;PABP polyA inh retest=64*

Screening data: PubChem BioAssay, several laboratories
